ALR H2O2 inh – inhibitors of human ALR sulfhydryl oxidase, primary screen, biochemical, H2O2 detection, HRP-luminol luminescence, single point. purified ALR, DTT oxidation. inhibition, % (concentration not given with the values). 290,000 compounds, 3.8% hits;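 active = mean and each replicate at 75% or more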;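 also: stock transfer was 7.5 nL into about 7.5 µL; 0% = neutral wells and 100% = wells with inactivated enzyme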
Target sequence (P55789 whole entry, looked up): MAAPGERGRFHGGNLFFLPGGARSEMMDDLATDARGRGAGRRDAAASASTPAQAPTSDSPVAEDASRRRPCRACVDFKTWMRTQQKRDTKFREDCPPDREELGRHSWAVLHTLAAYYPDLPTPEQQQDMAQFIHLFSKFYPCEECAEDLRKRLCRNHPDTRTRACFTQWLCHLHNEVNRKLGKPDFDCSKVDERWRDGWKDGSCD
Beta2AR agonist – beta2AR agonists driving receptor internalization, primary screen, cell-based, FAP fluorogen, flow cytometry; Am2.2-beta2AR cells; reference of the scale not given here; response, % (test concentration not listed); 340,000 compounds, 0.43% hits; AID 504454, 2011;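 active = response above a set limit, near 3 SD of response in nonfluorescent compounds, cut at about 42% in these data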;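 also: stock transfer was 100 nL into about 11 µL; a reference agonist was the positive control; negative values mostly stem from fluorescent compounds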
FGF22 binding – binders of human FGF22 protein, primary screen, FGF22 synaptogenesis inhibitor project, biophysical, thermal shift, single point. 340,000 compounds, 1.5% hits. calls only at 9.99 µM. Fibroblast growth factor 22 (Homo sapiens), Q9HCT0. recombinant FGF22 thermal shift, SYPRO orange fluorescence; percent of sucrose octasulfate shift, DMSO zero;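 active = melting point raised past a set limit in the mean and every replicate; three in four hits are not shown here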
Target sequence (Q9HCT0 whole entry, looked up): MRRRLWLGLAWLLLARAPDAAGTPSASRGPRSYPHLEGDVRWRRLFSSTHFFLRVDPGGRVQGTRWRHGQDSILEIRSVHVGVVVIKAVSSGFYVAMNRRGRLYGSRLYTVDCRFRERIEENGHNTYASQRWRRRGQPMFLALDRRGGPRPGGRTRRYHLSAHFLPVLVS
E coli growth – E. coli growth inhibition, primary screen, OD600; Escherichia coli growth, 23 h; hits give low values; OD600 absorbance (test concentration not listed); 330,000 compounds, 0.21% hits; AID 1053175, 2014;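 active = OD600 absorbance below the run mean of sample wells minus 3.6 SD, in any replicate, cut at about 0.56 in these data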;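 also: stock transfer was 300 nL into about 60 µL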
LANA-H2A inh – blockers of LANA interaction with H2A/H2B – biochemical, FP readout, HTS, primary screen; Protein LANA1 (Human herpesvirus 8 type P (isolate GK18)), Q9QR71; cell-free LANA-H2A/H2B peptide, fluorescence polarization; inhibition, % (test concentration not listed); 320,000 compounds, 0.6% hits; AID 2629, 2010; in the data active = inhibition mostly above about 10%, no sharp cut-off; inactive = mostly below about 6.7%;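 also: stock transfer was 7.5 nL into about 10 µL; 0% = median of vehicle wells and 100% = median of positive control wells; one replicate is shown; the record names a cut of 25% in any replicate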
HNF4A DNA FP – change in binding of human HNF4A to DNA, primary screen, biochemical, fluorescence polarization, FITC-DNA; Hepatocyte nuclear factor 4-alpha (Homo sapiens), P41235; 1 h; activity change, % at 10 µM; 360,000 compounds, 0.3% hits; AID 1224865, 2016; in the data active = activity change above about 30%, passing the limit was not always enough;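 also: controls were the assay level and a saturating level of protein; the project sought stronger binding though the title names inhibitors; some compounds called inactive have numbers as strong as hits; positive values seem to mean higher polarization but the record does not say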
Target sequence (P41235 whole entry, looked up): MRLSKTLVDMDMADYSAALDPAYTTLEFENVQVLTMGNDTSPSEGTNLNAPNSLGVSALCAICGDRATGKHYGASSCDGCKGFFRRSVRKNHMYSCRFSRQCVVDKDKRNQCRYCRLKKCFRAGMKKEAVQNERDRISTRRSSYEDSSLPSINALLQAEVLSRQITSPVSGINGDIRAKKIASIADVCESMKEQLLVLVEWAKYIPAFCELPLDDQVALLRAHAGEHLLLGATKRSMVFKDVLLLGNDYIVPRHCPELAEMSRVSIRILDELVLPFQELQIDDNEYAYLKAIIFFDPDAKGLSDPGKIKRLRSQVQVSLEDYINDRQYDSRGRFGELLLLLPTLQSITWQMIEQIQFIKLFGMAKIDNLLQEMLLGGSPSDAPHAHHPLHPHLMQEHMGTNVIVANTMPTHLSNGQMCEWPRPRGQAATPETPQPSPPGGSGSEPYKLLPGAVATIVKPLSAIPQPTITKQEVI
UCH37 DUB inh – inhibitors of human UCH37 deubiquitinase, primary screen, biochemical, Ub-AMC cleavage, fluorescence | purified proteasome/UCH37 | Ubiquitin carboxyl-terminal hydrolase isozyme L5 (Homo sapiens), Q9Y5K5 | 330,000 compounds, 0.33% hits | inhibition, % (concentration not given with the values);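 active = mean of two replicates above 20%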;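 also: 0% = compound-free wells with enzyme and 100% = wells lacking proteasome; stock transfer was 100 nL into about 20 µL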
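Schedule: 30 min plus 25 min, room temperature / Material: human UCH37 within purified proteasomes / Technique: AMC fluorescence intensity at 355/460 nm / Buffer or medium: pH 7.4 Tris-HCl (50 mM) with ovalbumin, ATP-MgCl2, DTT / Controls: wells without proteasome as full block, compound-free enzyme plus substrate as uninhibited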
Active calls of the source: *; i = inactive; nt = no result given; + = active, no number. This is a subset; the hit share may differ from the screen's.

SMILES | ALR H2O2 inh | Beta2AR agonist | FGF22 binding | E coli growth | LANA-H2A inh | HNF4A DNA FP | UCH37 DUB inh
CCCn1c(SCC(=O)NCc2ccc(Cl)cc2)n[nH]c1=O | -11 | 5 | i | 0.73 | -1.8 | -0.6 | 0.8
COc1cc(OC)cc(C(=O)Nc2ccc(C(=O)NCC3CCCO3)cc2)c1 (stereo unspecified) | -7 | -3 | i | 0.66 | 2.2 | 1.6 | -0.3
O=C(N/N=C/c1c[nH]c2ccccc12)c1cccs1 | 31 | 1 | + | nt | 1.1 | 4.1 | nt
COc1cccc(/C=C2\SC(N3CCC(C)CC3)=NC2=O)c1OC | -3 | 2 | i | 0.68 | 5.6 | -1.1 | 6.7
CCCCCn1c(CN2CCN(Cc3ccccc3)CC2)nc2c1c(=O)n(C)c(=O)n2C | -12 | 4 | nt | 0.67 | 1.2 | 5.9 | 3.5
Cc1ccc(C(=O)Oc2ccc(Cl)c3cccnc23)cc1[N+](=O)[O-] | 10 | -5 | nt | 0.63 | -1.2 | 0.9 | 4.9
Oc1ccc(Nc2nc(-c3ccccc3)nc3ccccc23)cc1 | 98* | 9 | nt | 0.63 | 2.9 | 0.8 | -21
COc1ccc(C(=O)c2ccc(C)cc2)c(OC)c1OC | nt | -11 | i | 0.67 | nt | -0.4 | 2.3
O=C(Nc1ccccn1)C1CCN(S(=O)(=O)c2ccc3c(c2)OCCCO3)CC1 | nt | -3 | nt | 0.65 | nt | 1.9 | 0.7
COc1ccc(S(=O)(=O)NCc2ccc(C(=O)N(C)Cc3ccco3)cc2)cc1 | -1 | -3 | nt | 0.69 | 1.1 | 3.0 | 2.4
O=C(O)CP(=O)(O)O | 3 | -1 | i | 0.69 | 7.2* | -1.5 | 0.6
c1cncc(-c2nn[nH]n2)c1 | -20 | 2 | nt | 0.67 | 1.6 | 0.2 | 1.5
COc1ccc(-c2csc(CCn3nc(C)cc3C)n2)cc1 | 32 | 14 | i | 0.64 | -3.0 | 1.9 | -1.0
O=C(Nc1ncc(S(=O)(=O)c2ccc([N+](=O)[O-])cc2)s1)c1cccnc1 | -19 | 7 | i | 0.64 | 2.2 | -2.6 | 12
COc1ccc(-n2c(Cc3cccn3C)nnc2SCC(=O)N2CCOCC2)cc1 | nt | 1 | i | 0.7 | 6.6 | 4.5 | 1.3
COc1ccc(NC2=CC(=O)CC(c3ccc(C)cc3)C2)c(OC)c1 (stereo unspecified) | -22 | -9 | nt | 0.73 | -1.5 | 0.1 | 2.2
Cc1cc(C(=O)N(C)CC(=O)Nc2cccc(F)c2)no1 | -5 | -3 | i | 0.69 | -7.0 | 2.2 | 1.6
CCN(CC)c1nc(C(N)=O)cc(-c2ccccc2)n1 | -3 | -12 | nt | 0.67 | -7.6 | 0.0 | -22
CCCCOC(=O)Nc1ccc(N2CCCCC2)cc1 | 78* | 4 | nt | 0.65 | 0.9 | 4.8 | 1.1
O=C(NCC1(N2CCCCC2)CCCCC1)c1ccc(S(=O)(=O)N2CCCC2)cc1 | -5 | 12 | i | 0.67 | 2.4 | 3.3 | 0.5
O=C(NCc1cccs1)NC1CCCCC1 | 3 | 3 | nt | 0.76 | -1.1 | -0.1 | -0.6
Cc1cc(C(=O)Nc2ccccc2C(=O)O)ccc1NC(=O)COc1cccc([N+](=O)[O-])c1 | 7 | -2 | i | 0.67 | -2.5 | -3.3 | 1.9
CCn1c(SCC(=O)N2CCCCC2C)nc2c1c(=O)n(C)c(=O)n2C (stereo unspecified) | nt | -3 | i | 0.68 | -0.9 | 2.0 | 2.7
CC(=O)Nc1cc(C(=O)N2CCOCC2)ccc1S(=O)(=O)c1ccc(C)cc1 | 3 | -3 | nt | 0.69 | -4.6 | 2.5 | 5.8
CCC1CCCCN1CCCNC(=O)CCCNC(=O)Cn1cnc2sc3c(c2c1=O)CCCC3 (stereo unspecified) | -25 | -10 | i | 0.71 | -1.4 | -1.7 | 4.5
More structures:
SMILES | ALR H2O2 inh | Beta2AR agonist | FGF22 binding | E coli growth | LANA-H2A inh | HNF4A DNA FP | UCH37 DUB inh
O=C(N/N=C/c1ccc(Cl)c([N+](=O)[O-])c1)c1cc(-c2ccccc2)nc2ccccc12 | 1 | 6 | i | nt | -0.9 | -0.3 | nt
COc1ccc(-c2nc(C#N)c(N3CCC(C(N)=O)CC3)o2)cc1OC | -15 | 2 | nt | 0.67 | 6.4 | 5.7 | -373
CC1Oc2ccccc2C=C1C1/C(=C(/O)c2ccccc2)C(=O)C(=O)N1CCCN(C)C (stereo unspecified) | -7 | 2 | nt | nt | -1.1 | -2.4 | 4.4
CC(C)c1ccc(NC(=O)c2ccccc2NC(=O)C2CC=CCC2C(=O)O)cc1 (stereo unspecified) | 13 | 7 | i | 0.66 | -2.9 | 4.8 | -6.8
COc1ccc(NC(=O)c2cc(S(=O)(=O)N3CCOCC3)ccc2C)cc1S(=O)(=O)N1CCOCC1 | -3 | 4 | i | 0.71 | 1.4 | -5.7 | 3.6
COc1ccc(N(C(=O)c2ccccc2OC(C)=O)C(C)C2CC2)cc1 (stereo unspecified) | -4 | -8 | nt | 0.73 | -3.1 | -1.7 | -1.1
COc1ccc(OC)c(NC(=O)c2sc3nc(Cc4ccccc4)cc(C(F)(F)F)c3c2N)c1 | -5 | -4 | nt | 0.71 | -4.5 | 53 | -8.1
CC1(C)CC(NS(=O)(=O)c2cccc3ccccc23)CC(C)(C)N1 | -7 | 3 | i | 0.71 | 1.2 | 1.2 | 3.6
CCCC(NC(=O)C(C)Sc1nnnn1C1CC1)c1ccccc1 (stereo unspecified) | -2 | -2 | i | 0.65 | 3.7 | 1.3 | 1.8
O=C(NC(=S)Nc1cc(C(F)(F)F)ccc1N1CCOCC1)c1ccc(-c2cccc(Cl)c2)o1 | -4 | 1 | nt | 0.7 | 3.5 | 5.4 | 11
CCOc1ccc(CCNS(=O)(=O)c2ccc3c(c2)NC(=O)CO3)cc1OCC | -3 | 0 | i | 0.66 | -4.3 | 2.4 | 0.2
CC(C)CCOc1ccc(C2(C)NC(=O)N(CN3CCOCC3)C2=O)cc1 (stereo unspecified) | 0 | 0 | nt | 0.73 | 0.1 | 1.0 | 0.2
NS(=O)(=O)c1ccc(NC(=O)COC(=O)Cc2ccc(Cl)cc2)cc1 | -8 | 6 | i | 0.67 | 0.6 | -1.1 | 1.7
COc1ccc(C(=O)NCC(=O)N/N=C/C(C)=C/c2ccco2)cc1OC | -95 | 10 | nt | nt | -3.5 | 1.7 | nt
Cc1ccc(C(=O)CSc2nc(-c3ccccc3)cc(=O)[nH]2)cc1 | -4 | 3 | i | 0.69 | -1.0 | -1.4 | 5.1
CNC(=O)CSc1nc2cccnc2n1C1CCCCC1 | -11 | 7 | i | 0.67 | 1.6 | 1.2 | 2.9
CCCOc1ccc(C=Nc2ccc(OC)c(S(=O)(=O)N3CCOCC3)c2)c(O)c1 | nt | 11 | i | 0.65 | 0.3 | 3.7 | 4.0
Cc1ccc(C)c(N=Cc2ccc(-c3ccc([N+](=O)[O-])cc3)o2)c1 | -6 | 9 | i | 0.68 | -5.1 | -0.8 | 3.1
CN(C)c1ccc(CN(C(=O)c2ccccc2Br)C2CCS(=O)(=O)C2)cc1 (stereo unspecified) | 96* | -1 | i | 0.68 | -15 | 0.0 | 0.0
CCn1c(=O)cc(SCC(=O)Nc2cccc(SC)c2)c2ccccc21 | nt | -12 | nt | 0.72 | -0.7 | -3.0 | 5.7
COc1ccccc1NC(=O)Nc1nc(CC(=O)NCc2cccnc2)cs1 | nt | 3 | nt | 0.7 | 6.6 | -2.6 | 0.1
O=S(=O)(Nc1ccc(O)c(CN2CCCCC2)c1)c1ccccc1 | nt | 7 | nt | 0.69 | -2.1 | 2.5 | 1.1
O=C(CSc1nncs1)NCc1ccc(F)cc1 | -4 | -7 | nt | 0.69 | 2.1 | -0.3 | 1.0
CC(=O)c1ccc(NC(=O)CCC(=O)N2CC(C)Oc3ccc(C)cc32)cc1 (stereo unspecified) | -1 | -7 | i | 0.65 | 0.2 | 8.2 | 2.7
COc1ccc(OCc2nnc(SCC(=O)c3c(N)n(C)c(=O)n(C)c3=O)n2-c2ccccc2F)cc1 | nt | nt | nt | 0.66 | -5.9 | nt | 1.2

Structural class: those above containing a Cl atom (5)
SMILES | ALR H2O2 inh | Beta2AR agonist | FGF22 binding | E coli growth | LANA-H2A inh | HNF4A DNA FP | UCH37 DUB inh
CCCn1c(SCC(=O)NCc2ccc(Cl)cc2)n[nH]c1=O | -11 | 5 | i | 0.73 | -1.8 | -0.6 | 0.8
Cc1ccc(C(=O)Oc2ccc(Cl)c3cccnc23)cc1[N+](=O)[O-] | 10 | -5 | nt | 0.63 | -1.2 | 0.9 | 4.9
O=C(N/N=C/c1ccc(Cl)c([N+](=O)[O-])c1)c1cc(-c2ccccc2)nc2ccccc12 | 1 | 6 | i | nt | -0.9 | -0.3 | nt
O=C(NC(=S)Nc1cc(C(F)(F)F)ccc1N1CCOCC1)c1ccc(-c2cccc(Cl)c2)o1 | -4 | 1 | nt | 0.7 | 3.5 | 5.4 | 11
NS(=O)(=O)c1ccc(NC(=O)COC(=O)Cc2ccc(Cl)cc2)cc1 | -8 | 6 | i | 0.67 | 0.6 | -1.1 | 1.7

Remaining list, next part.
SMILES | ALR H2O2 inh | Beta2AR agonist | FGF22 binding | E coli growth | LANA-H2A inh | HNF4A DNA FP | UCH37 DUB inh
CC(OC(=O)c1ccc2c(c1)OCCO2)C(=O)c1ccccc1 (stereo unspecified) | nt | -1 | i | 0.67 | 0.7 | 5.0 | 1.0
O=C(c1ccccc1S(=O)(=O)NCc1ccccc1)N1CCCC1 | 11 | 8 | i | 0.73 | 0.5 | 0.2 | 5.4
Cc1ccc(N(C(=O)c2sc(C)nc2C)C(C(=O)NC(C)(C)C)c2ccncc2)cc1 (stereo unspecified) | -15 | -1 | i | 0.68 | -3.9 | 1.5 | 0.3
COC(=O)C1=C(C)NC(=O)NC1c1ccc(OCC(=O)N2CCCCC2)cc1 (stereo unspecified) | nt | 0 | nt | 0.76 | 2.5 | 0.7 | 6.1
COc1cc2ccccc2nn1 | 3 | -4 | i | 0.66 | 2.6 | 1.3 | -139
COC(C[C@@H](O)C[C@@H](O)COCc1ccccc1)OC | nt | -2 | i | nt | nt | 0.5 | 1.2
CCOc1cccc(NC(=O)C2CCCN(S(=O)(=O)c3ccc(OC)cc3)C2)c1 (stereo unspecified) | -3 | 5 | nt | 0.71 | -0.2 | -0.1 | -0.7
COC(=O)COc1cc(Cl)c(C=O)cc1OC | -2 | 5 | i | 0.68 | -4.0 | 3.9 | -2.6
CC(=O)c1ccc(OCCCOc2cccc3cccnc23)cc1 | -3 | -3 | i | 0.67 | -2.6 | -0.7 | 0.6
CCCCCCNCCn1cnc2c(N)ncnc21 | 2 | -4 | nt | 0.73 | 1.1 | -3.2 | 1.8
Cc1nc2ccc(F)cc2cc1C(=O)NCc1ccco1 | nt | 2 | nt | 0.66 | -1.2 | 2.6 | 0.5
Cc1c(N2C(=O)c3ccc(F)cc3C2=O)c(=O)n(-c2ccccc2)n1C | 2 | 7 | nt | 0.71 | -0.2 | -3.0 | 6.7
CCCCOC(=O)Nc1cccc(C(=O)OCC)c1 | -6 | -5 | nt | 0.73 | -8.0 | -2.4 | 2.1
CC(=N\Nc1ccc(Cl)cc1)/C(=N/O)C(=O)Nc1ccccc1 | 99* | 3 | nt | nt | -12 | 0.2 | nt
CCN(CC)S(=O)(=O)c1ccc(N2CCOCC2)c(NC(=O)CN2C(=O)NC3(CCCC3)C2=O)c1 | nt | -7 | i | 0.67 | nt | -1.1 | -3.3
COc1ccccc1C(=O)COC(=O)Cn1c(C)csc1=O | 2 | -3 | i | 0.72 | 1.2 | -4.1 | 3.5
